High-throughput results from PubChem.
NS1 function inh – inhibitors of influenza NS1 protein function | S. cerevisiae slowed by influenza A NS1, growth recovery by OD600 | Potency, µM (series often up to 46.1 µM), for inactives: top-dose activity, positive = more growth | hit rate 0.4% among 270,000 | AID 2326; active means well fitted rising curve with a large enough effect; inconclusive means small, poorly fitted or top-dose-only effect; inactive means no such curve, though single readings can be large or run the other way; further: nearly all actives have a fitted effect of over 50% in size
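Recovery from NS1-induced slow growth read by OD600 in budding yeast switched to galactose assay medium (pH 6.0, -URA) at 1:100 dilution. Compound 23 nl per well; the matching strain lacking NS1 serves as control.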
Lassa entry inh – blocks Lassa virus binding to or entry into cells; Lassa virus pseudotype entry inhibition, cell reporter; control for the full effect not named in the record; Potency, µM (titrated, usually from 37.9 µM), for the others: top-dose activity change, negative = inhibition, usual class: inhibitors; hit rate 1.2% among 300,000; active means well fitted inhibition curve with a large enough effect; inconclusive means small, poorly fitted or top-dose-only effect, or effect the other way; inactive means flat fitted curve, though single readings scatter; tested in HEK293 cells; further: on the % scale 0 is the no-effect control and ±100 the full control effect; nearly all actives have a fitted effect of over 50% in size; luciferase read-out
MARV entry inh – blocks Marburg virus binding to or entry into cells; hit rate 1.8% among 300,000; Marburg virus pseudotyped entry inhibition, cell reporter; control for the full effect not named in the record; about a third of the inactives were read at about 46 µM; AID 540276; Potency, µM (top dose mostly 37.8 µM), for inactives: at the highest dose activity change, negative = inhibition, hits mostly inhibitors; active = well fitted inhibition curve with a large enough effect; inconclusive = small, poorly fitted or top-dose-only effect, or effect the other way; inactive = flat fitted curve, though single readings scatter; tested in HEK293 cells; about a fifth of its hits are not listed in these tables; further: on the % scale 0 is the no-effect control and ±100 the full control effect; luciferase read-out
RE007 growth inh – less growth of the S. pombe RE007 Vpr strain | S. pombe RE007 Vpr strain, BacTiter-Glo ATP luminescence, 24 h; control for the full effect not named in the record | Potency, µM (doses to about 92.2 µM), for the others: top-dose activity change, negative = less growth | hit rate 0.21% among 360,000 | AID 651644; active = well fitted falling curve with a large enough effect; inconclusive = small, poorly fitted or top-dose-only effect; inactive = no such curve, though single readings can be large or run the other way;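 further: on the % scale 0 is the no-effect control and ±100 the full control effect; nearly all actives have a fitted effect of over 50% in size; the assay follows cell death caused by Vpr and the record does not say whether a fall means rescue or toxicity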
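Fission yeast RE007 carrying one integrated HIV-1 vpr copy, seeded at OD 0.01 in PMG+AL medium with 23 nL pinned compound. Grown 24 h at 30 degrees; viability read by BacTiter-Glo luminescence after 5 min.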
Cruzain Triton – cruzain (T. cruzi) inhibition with detergent. P25779. purified cruzain, Z-FR-AMC fluorescence, 0.01% Triton. Potency, µM, for the others: max response, negative = inhibition, actives largely listed as inhibitors. hit rate 0.43% among 200,000;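 further: plate controls were neutral wells for no effect and buffer without enzyme for full effect; nearly all actives have a fitted effect of over 40% in size; top concentration of the series not given in the record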
Target sequence (P25779 123-467 limits assumed): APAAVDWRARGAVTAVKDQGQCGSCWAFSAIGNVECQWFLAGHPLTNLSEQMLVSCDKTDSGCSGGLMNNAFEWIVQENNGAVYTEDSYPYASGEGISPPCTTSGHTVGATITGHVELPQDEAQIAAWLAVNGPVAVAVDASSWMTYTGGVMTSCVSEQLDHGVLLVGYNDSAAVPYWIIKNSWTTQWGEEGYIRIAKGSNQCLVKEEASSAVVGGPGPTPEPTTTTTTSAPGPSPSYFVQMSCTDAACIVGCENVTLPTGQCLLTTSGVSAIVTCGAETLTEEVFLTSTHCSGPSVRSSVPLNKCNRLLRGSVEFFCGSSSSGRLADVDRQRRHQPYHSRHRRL
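15 min RT preincubation of 1.5 nM cruzain with compound, then 2 uM Z-FR-AMC added; kinetic AMC fluorescence, 60 s delta. Triton X-100 0.01%, pH 5.5.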
Cruzain inh noDet – cruzain (T. cruzi) inhibition without detergent; P25779; purified cruzain, Z-FR-AMC fluorescence, no detergent; Potency, µM, for inactives: max response, negative = inhibition, hits mostly inhibitors; hit rate 2.3% among 200,000; AID 1476;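 further: plate controls were enzyme without inhibitor for no effect and buffer without enzyme for full effect; nearly all actives have a fitted effect of over 40% in size; top concentration of the series not given in the record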
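Purified cruzain at 1.5 nM, pre-incubated 15 min with compound at room temperature in 100 mM sodium acetate pH 5.5, 5 mM DTT, 0.00005% Triton X-100. Reaction started with 2 uM Z-FR-AMC; AMC fluorescence increase over 60 s gives rate.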
SARS PLpro yeast – inhibitors of SARS-CoV papain-like protease in yeast. S. cerevisiae expressing SARS-CoV PLpro, growth rescue; control for the full effect not named in the record. Potency, µM (series often up to 32.9 µM), without a hit: at the highest dose activity, positive = growth rescue. hit rate 0.19% among 330,000. AID 485353; active means well fitted rising curve with a large enough effect; inconclusive means small, poorly fitted or top-dose-only effect; inactive means no such curve, though single readings can be large or run the other way; further: 0% is about no effect; nearly all actives have a fitted effect of over 55% in size; growth read by luminescence after 48 h
2A StopGo – lowers the luciferase signal of an FMDV 2A StopGo reporter; human cells with a luciferase reporter of 2A StopGo recoding; control for the full effect not named in the record; Potency, µM (doses to about 57.9 µM), inactives show top-dose signal change, negative = less light; hit rate 1.2% among 410,000; AID 1159524; active = well fitted falling curve with a large enough effect; inconclusive = small, poorly fitted or top-dose-only effect; inactive = no such curve, though single readings can be large or run the other way; tested in HEK293T cells; further: on the % scale 0 is the no-effect control and ±100 the full control effect; nearly all actives have a fitted effect of over 45% in size; luciferase light after 4 h
* = called active by the depositor; ? = inconclusive; nt = no result given; & = joins results of further samples; [ ] = another dose, or the depositor's remark. Unless noted, the call rests on the fitted dose curve; in most records, active means well fitted curve in the direction sought with a large enough effect; inconclusive means small, poorly fitted or top-dose-only effect, or another doubt; inactive means no such curve, though single readings can be large; an effect the other way counts as inactive or inconclusive. Potency means the concentration at half of the fitted maximal effect.

mol,NS1 function inh,Lassa entry inh,MARV entry inh,RE007 growth inh,Cruzain Triton,Cruzain inh noDet,SARS PLpro yeast,2A StopGo
CCCCCCSC1=C(C#N)C(c2ccc(C)o2)CC(=O)N1 (stereo not given),-12%,-19%,-6%,-9%,-10%,-15%,-3%,nt
CSc1ccccc1C(=O)NCC(c1ccco1)N(C)C (stereo not given),1%,-22%,-7%[46.1 µM],4%,nt,nt,2%,27%
Cc1ccc(O)c(NC(=O)c2onc(C)c2Cl)c1,-9%,nt,-1%,-25%,nt,nt,-4%,28%
C=CCc1c(C)nc2c(C)cccc2c1SC(=N)N,-5%,-14%,?,?,nt,nt,1%,4%
N=c1n(CCN2CCCC2)c2ccccc2n1CC(O)c1ccc(Cl)c(Cl)c1 (stereo not given),1%,nt,nt,8%,nt,nt,0%,?
CN(c1ccccc1)c1ncnc2c1ncn2C,nt,16%,-22%,19%,nt,nt,nt,8%
COc1ccccc1NC1=C(NC(C)=O)C(=O)c2ccccc2C1=O,-3%,nt,nt,-29%,nt,nt,-4%,6%
COc1ccc2nc(N3CCN(C(=O)c4ccco4)CC3)sc2c1,nt,-5%[46.1 µM],nt,nt,-4.6%,-5%,nt,11%
CCCOC(=O)c1cccc(Nc2nc(CCC)cc(=O)[nH]2)c1,nt,-22%[46.1 µM],?,nt,-17%,13%,nt,?
CCN(CC)S(=O)(=O)c1cccc(C(=O)Nc2nncs2)c1,-10%,-19%,-6%&-6%,9%,3.5%,2%,2%,-12%
O=C(Cc1c[nH]c2ccccc12)N/N=C/c1cccc(F)c1,4%,-18%,?,-8%,-5.3%,7%,-8%,7%
Cc1ccc(S(=O)(=O)N(C)C)cc1NC(=O)COc1ccc(-c2nnco2)cc1,-2%,1%,6%,-12%,nt,nt,0%,-11%
Cc1cccc(NC(=O)CCCn2nc(C)c3c(C)n(-c4ccccc4)nc3c2=O)c1C,nt,6%[46.1 µM],nt,nt,-7.5%,-12%,nt,-10%
CCOc1ccc(Oc2cc(N)cc([N+](=O)[O-])c2)cc1,nt,0%[46.1 µM],12%[46.1 µM],-8%,nt,nt,-3%,8%
COc1ccccc1N1CCN(C(=O)CSc2ncnc3c2cnn3-c2ccc(C)c(C)c2)CC1,0%,nt,nt,5%,nt,nt,-1%,-7%
COc1ccc(NC(=O)C/C(C)=N/NC(=O)C(=O)NC2CCCCC2)c(OC)c1,nt,-1%,?,-5%,nt,nt,0%,1%
CC(=O)c1cccc(N2Cc3ccccc3C2=NC(=O)CCl)c1,5%,?,?,-2%,nt,nt,0%,-29%
CCc1ccc(NC(=O)Cn2nnc(C(=O)NCCc3ccccc3)c2N)cc1,nt,14%[46.1 µM],-20%[46.1 µM],nt,-1.0%,?,nt,-9%
CCOC(=O)N1CCC(NC(=O)c2ccc(OC)c(CN3CC(=O)N4CCCC4C3=O)c2)CC1 (stereo not given),5%,17%,2%&2%,18%,2.0%,?,-1%,-4%
CCn1nc(C(=O)NNC(=O)COc2ccc(OC)cc2)c2ccccc2c1=O,-19%,-6%,2%,-17%,-3.5%,-6%,9%,-15%
Cc1ccc(-c2nnc(NC(=O)Cc3ccc(F)cc3)o2)c(C)c1,-5%,nt,nt,8%,nt,nt,3%,3%
O=C(CSc1nccc(=O)[nH]1)Nc1ccc(Oc2ccccc2)cc1,8%,nt,nt,-16%,nt,nt,-6%,-9%
Cn1cc(C(=O)N/N=C/c2cccc(O)c2)ccc1=O,4%,1%,1%[46.1 µM],-12%,nt,nt,4%,-12%
Cc1ccc(S(=O)(=O)c2ncccc2[N+](=O)[O-])cc1,-109%,nt,nt,-18%,nt,nt,-9%,20µM*
CSCCC(NC(=O)c1cccc(C)c1)C(=O)OCC(=O)Nc1c(C)nn(-c2ccccc2)c1C (stereo not given),nt,12%,-6%[46.1 µM],6%,nt,nt,2%,-16%

An excerpt from above in order of length of the SMILES, descending.
mol,NS1 function inh,Lassa entry inh,MARV entry inh,RE007 growth inh,Cruzain Triton,Cruzain inh noDet,SARS PLpro yeast,2A StopGo
Cc1cccc(NC(=O)CCCn2nc(C)c3c(C)n(-c4ccccc4)nc3c2=O)c1C,nt,6%[46.1 µM],nt,nt,-7.5%,-12%,nt,-10%
N=c1n(CCN2CCCC2)c2ccccc2n1CC(O)c1ccc(Cl)c(Cl)c1 (stereo not given),1%,nt,nt,8%,nt,nt,0%,?
Cc1ccc(-c2nnc(NC(=O)Cc3ccc(F)cc3)o2)c(C)c1,-5%,nt,nt,8%,nt,nt,3%,3%
COc1ccccc1NC1=C(NC(C)=O)C(=O)c2ccccc2C1=O,-3%,nt,nt,-29%,nt,nt,-4%,6%

(more compounds)
mol,NS1 function inh,Lassa entry inh,MARV entry inh,RE007 growth inh,Cruzain Triton,Cruzain inh noDet,SARS PLpro yeast,2A StopGo
O=C(Nc1ccccc1C(=O)Nc1ccc2c(c1)OCO2)c1ccco1,15%,?,?,-3%,-1.7%,-6%,-1%,-7%
CCO/C(C)=C1\N=C(c2ccc(Cl)cc2)OC1=O,5%,9%,-3%,3%,0.9%,-7%,4%,12%
COC(=O)c1sc2cc(=O)n(-c3cccc(C(F)(F)F)c3)nc2c1O,nt,-9%,-5%[46.1 µM],11%,nt,nt,-1%,2%
COc1ccc(CN(C)C2CCCCC2)cc1,-1%,2%,-17%,3%,1.0%,-1%,3%,4%
O=C(O)c1ccc(Cn2cnc3c(=O)[nH]cnc32)cc1,nt,0%[46.1 µM],29%,-7%,nt,nt,nt,-5%
CCC1=C(OC(=O)N(CC)CC)N2C(=O)OC(=NCCc3c[nH]c4ccccc34)[C@]2(C)[C@H]2C1=CC[C@H]1C(=O)N(C)C(=O)[C@H]12,-4%,nt,nt,-21%,-8.4%,?,-1%,-22%
CC(=O)Nc1ccc(C(=O)OCC(=O)c2cccc([N+](=O)[O-])c2)cc1,7%,-8%,14%,18%,-2.7%,-14%,-9%,-9%
O=C(NC1CCN(C(=S)Nc2ccccc2Cl)CC1)C1CCCCC1,5%,nt,-5%[46.1 µM],-18%,nt,nt,8%,-3%
Cn1c(SCC(=O)Nc2ccc(N3CCOCC3)cc2)nnc1-c1ccccc1,-2%,3%,?,-3%,-4.2%,-12%,0%,0%
CCn1cc(CCC(=O)NCCc2ccccc2)c2ccccc21,-6%,24%[46.1 µM],9%[46.1 µM],16%,nt,nt,-1%,7%
Cc1ccc2cc(CCNS(=O)(=O)c3ccc(F)cc3)c(=O)[nH]c2c1,-97%,nt,nt,25%,0.9%,-4%,2%,?
CCCc1nnc(NC(=O)CCC(=O)NC2CCCCC2)s1,15%,nt,nt,6%,nt,nt,9%,-9%
Cc1ccc2c(cnn2C(=O)CCC(=O)N2CCCCC2C)c1 (stereo not given),-39%,nt,nt,6%,nt,nt,-6%,-18%
Cc1ccc(S(=O)(=O)Nc2cccc(C(=O)NCC(c3ccco3)N3CCCC3)c2)cc1F (stereo not given),nt,?,?,-2%,nt,nt,-13%,-11%
CCC(C)NC(=O)CN1C(=O)CSc2ccc(S(=O)(=O)N3CCCC3)cc21 (stereo not given),-1%,nt,nt,6%,nt,nt,4%,-10%
CCOc1ccc(S(=O)(=O)n2nc(C)cc2C)cc1,-5%,27%,-16%,11%,nt,nt,-5%,-14%
O=C(Cn1c2ncccc2c(=O)n1-c1ccccc1)Nc1ccc(Cl)cc1C(F)(F)F,nt,5%[46.1 µM],nt,nt,0.8%,-5%,nt,-9%
CCN(C(=O)CCS(=O)(=O)c1cc2[nH]c(=O)c(=O)[nH]c2cc1C)c1ccccc1,nt,20%[46.1 µM],nt,nt,-4.4%,-4%,nt,3%
CCOCc1nnc(NC(=O)COC)s1,?,7%,0%,6%,2.3%,11%,11%,16%
C(=C\c1ccncc1)/c1ccccc1,-2%,nt,nt,-20%,nt,nt,-2%,7%
CCN(CC)c1nc(N2CCN(C)CC2)nc2ccccc12,15%,?,?,-2%,nt,nt,0%,-23%
O=C(CS(=O)(=O)c1ccc(F)cc1)Nc1nnc(-c2cccs2)o1,nt,-1%,27%[46.1 µM],16%,nt,nt,0%,-3%
CSc1nc(N(C)C)nc(N(C#N)CCOC(C)=O)n1,nt,?,?,9%,nt,nt,-3%,-3%
CCOc1ccc(N2CC(c3nc(-c4cc(OC)c(OC)c(OC)c4)no3)CC2=O)cc1 (stereo not given),nt,-3%[46.1 µM],nt,nt,-4.8%,?,nt,-9%
N#CC1CN(C(c2ccccc2)c2ccccc2)C1,nt,17%[46.1 µM],-5%[46.1 µM],12%,nt,nt,3%,-13%
COc1cccc(NC(=O)c2cnc(SCC(=O)N3CCCc4ccccc43)n(C)c2=O)c1,nt,15%[46.1 µM],nt,nt,-2.0%,-28%,nt,0%
CCOC(=O)C(=O)Nc1ccc(S(=O)(=O)N2CCOCC2)cc1OC,8%,-6%,13%,-10%,0.7%,?,-1%,9%
CCc1ccc(NC(=O)CSc2nnc(Cc3cccn3C)n2-c2ccc(OC)cc2)cc1,-37%,nt,1%,17%,-2.5%,18%,0%,52%[activator]

Compounds above with a nitro group on carbon, in the order listed:
mol,NS1 function inh,Lassa entry inh,MARV entry inh,RE007 growth inh,Cruzain Triton,Cruzain inh noDet,SARS PLpro yeast,2A StopGo
CCOc1ccc(Oc2cc(N)cc([N+](=O)[O-])c2)cc1,nt,0%[46.1 µM],12%[46.1 µM],-8%,nt,nt,-3%,8%
Cc1ccc(S(=O)(=O)c2ncccc2[N+](=O)[O-])cc1,-109%,nt,nt,-18%,nt,nt,-9%,20µM*
CC(=O)Nc1ccc(C(=O)OCC(=O)c2cccc([N+](=O)[O-])c2)cc1,7%,-8%,14%,18%,-2.7%,-14%,-9%,-9%

Rows are unselected. About 4.7% of those tested had a hit in this group.
